# MLL AF4-AF9 inh: inhibitors of AF4 peptide binding to AF9, primary screen, biochemical, AlphaScreen, biotin-AF4 peptide, FLAG-AF9, single point. actives 0.47% (n = 350,000). Protein AF-9 (Homo sapiens), P42568. inhibition, % at 10 µM;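 active = every replicate reaching a set inhibition limit, whatever the replicate mean, cut at about 25% in these data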;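 note: 0% = plate neutral control median and 100% = total signal loss; the record names both 10 and 1 µM as test concentration; the first replicate is given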
# Target sequence (P42568 whole entry, looked up): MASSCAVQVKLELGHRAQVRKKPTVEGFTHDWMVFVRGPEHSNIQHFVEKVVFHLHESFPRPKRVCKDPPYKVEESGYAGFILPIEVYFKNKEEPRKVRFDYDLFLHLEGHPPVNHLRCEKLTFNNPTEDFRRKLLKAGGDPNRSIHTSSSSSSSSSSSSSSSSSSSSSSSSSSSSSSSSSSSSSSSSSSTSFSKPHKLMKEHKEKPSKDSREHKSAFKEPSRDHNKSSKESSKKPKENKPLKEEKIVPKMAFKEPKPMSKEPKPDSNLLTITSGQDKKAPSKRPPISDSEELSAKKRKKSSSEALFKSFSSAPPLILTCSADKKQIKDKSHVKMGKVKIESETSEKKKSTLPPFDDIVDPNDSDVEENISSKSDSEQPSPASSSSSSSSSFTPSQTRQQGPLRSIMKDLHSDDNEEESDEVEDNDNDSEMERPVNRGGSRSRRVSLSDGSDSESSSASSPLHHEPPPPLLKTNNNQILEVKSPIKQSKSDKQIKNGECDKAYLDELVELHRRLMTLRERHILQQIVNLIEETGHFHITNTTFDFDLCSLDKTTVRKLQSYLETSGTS
# Ecoli rRNA inh: reduced GFP signal of wild-type E. coli, primary screen, bacterial rRNA inhibitor project, GFP/RFP fluorescence, OD600, single point; E. coli WT GFP vs humanized-ribosome RFP mutants, 24 h; hits give low values; DMSO median 0, no signal -100; GFP signal change (wild-type ribosome), % (test concentration not listed); actives 1.6% (n = 350,000);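 active = significant combined selectivity score with lowered wild-type GFP, culture density cut under 30%, mutant RFP and density less affected; inactive = any of these conditions unmet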; note: one replicate is shown; some compounds called inactive have numbers as strong as hits
# Ecoli rRNA inh OD600: further read-out of Ecoli rRNA inh, marked with its call; OD600 change, %; measured here: OD600 growth;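 optical density of the mix in the first replicate; 0 = DMSO median and -100 = no signal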
# Ecoli rRNA inh RFP: recorded beside Ecoli rRNA inh, whose call it bears; RFP signal change, %; measured here: RFP humanized mutant strains;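 first replicate; 0 = DMSO median and -100 = no signal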
# Active calls of the source: *; & = joins results of further samples.
SMILES,MLL AF4-AF9 inh,Ecoli rRNA inh,Ecoli rRNA inh OD600,Ecoli rRNA inh RFP
C[C@H]1CN([C@@H](C)CO)S(=O)(=O)c2ccc(C3=CCCCC3)cc2O[C@H]1CN(C)C(=O)Nc1ccc2c(c1)OCO2,12,-4,-5,10
Cc1ccc(NC(=O)CCS(=O)(=O)c2ccc3nc(C)sc3c2)c(C)c1,-4.1,8,11,-0.8
CCC(=O)Nc1ccc2c(c1)OC[C@H](C)N(C(=O)CN(C)C)C[C@H](C)[C@@H](OC)CN(C)C2=O,-0.9,2,-4,-0.9
O=C(NCCS(=O)(=O)NCc1cccs1)c1ccccc1,-4.9,7,10,2.9
C[C@H]1CN([C@@H](C)CO)C(=O)Cc2cc(NS(=O)(=O)c3ccc(F)cc3)ccc2O[C@@H]1CN(C)C(=O)Nc1ccc(C(F)(F)F)cc1,0.2,0,-15,0.2
C[C@H]1CN([C@@H](C)CO)C(=O)c2cccc(NC(=O)c3cnccn3)c2O[C@H]1CN(C)Cc1ccc(Cl)c(Cl)c1,3.3,-11,-1,0.4
COC(=O)C[C@H]1CC[C@@H]2[C@H](COC[C@@H](O)CN2C(=O)Nc2cccc(F)c2)O1,0.4,-3,2,-4.1
O=[N+]([O-])c1cc2ncccc2c2ncccc12,1.9,-30,-27,9.1
N#Cc1ccc(-c2nc3c4ccccc4ccn3c2Cc2ccccc2C(F)(F)F)cc1,1.1,9,11,52
C[C@H]1CN([C@@H](C)CO)C(=O)c2cccc(NS(=O)(=O)c3cccs3)c2O[C@@H]1CN(C)C(=O)Nc1ccc(F)cc1,-1.6,1,4,0.4
COc1cccc(S(=O)(=O)N[C@@H]2C=C[C@H](CC(=O)NCc3ccncc3)O[C@@H]2CO)c1,-1.7,-2,8,-0.9
COCC(=O)Nc1ccc2c(c1)[C@H]1C[C@H](CC(=O)NCc3ccccn3)O[C@@H](CO)[C@H]1O2,-20,-4,-5,-2.9
CO[C@H]1CN(C)C(=O)c2cc(NC(=O)C3CC3)ccc2OC[C@@H](C)N(Cc2cccc(F)c2)C[C@H]1C,1.5,-3,-10,-5.1
O=C(C[C@@H]1CC[C@@H]2[C@H](COC[C@H](O)CN2Cc2cccc(C(F)(F)F)c2)O1)NCc1ccc(Cl)cc1,5.8&0.4,-57&-40,-78&-68,-12&0.4
COCCNC(=O)C[C@H]1C[C@H]2c3cc(NC(=O)Nc4ccccc4)ccc3O[C@H]2[C@H](CO)O1,0.0,3,3,-1.3
CC(c1ccccc1)N1C(=O)OC(C)(C)C1(C)O (configuration not stated),-1.1,7,19,1.6
COc1ccc2c3c(n(C)c2c1)[C@H](CO)N(Cc1nccs1)CC31CN(C(=O)CC2CC2)C1,-0.1,-1,-6,1.2
COC(=O)C[C@@H]1CC[C@H]2[C@@H](COc3ccc(NC(=O)Nc4cccc(F)c4)cc3C(=O)N2C)O1,0.9,-5,-4,2.0
C[C@@H]1CN([C@@H](C)CO)C(=O)c2cc(NS(C)(=O)=O)ccc2O[C@H]1CN(C)S(=O)(=O)c1ccc(F)cc1,-1.8,2,3,-2.7
COc1ccc(-c2cnc3c(c2)C(=O)N([C@H](C)CO)C[C@@H](C)[C@H](CN(C)C(=O)Cc2cccnc2)O3)cc1,-2.6,8,12,-0.5
C[C@@H]1CN([C@@H](C)CO)C(=O)c2cccc(NS(=O)(=O)c3ccc(Cl)cc3)c2O[C@H]1CN(C)S(=O)(=O)c1cccs1,-1.4,-4,-6,0.0
COc1ccc2c3c([nH]c2c1)[C@H](CO)N(S(=O)(=O)c1cn(C)cn1)CC31CCN(CC2CCCC2)CC1,-2.2,9,13,4.4
O=C(/C=C/[C@H]1O[C@@H](n2cnc3c(NC(=O)c4ccccc4)ncnc32)[C@H](O)[C@@H]1O)NCc1ccco1,-2.2,19,11,-0.4
C[C@@H]1CCCCO[C@H](CN(C)C(=O)c2ccccc2)[C@H](C)CN([C@@H](C)CO)C(=O)c2cc(NS(=O)(=O)c3ccccc3)ccc2O1,1.7,0,-5,2.3
CCCCc1c(-c2ccccc2OC)ncn1CCc1ccc(Cl)cc1,9.7,-62,-79,-13
C[C@H]1CN([C@@H](C)CO)C(=O)c2cc(-c3ccc(F)cc3)cnc2O[C@@H]1CN(C)Cc1cncnc1,-5.6,0,0,1.6
COc1ccc(S(=O)(=O)Nc2cccc3c2O[C@H](CN(C)Cc2ccc4c(c2)OCO4)[C@H](C)CN([C@@H](C)CO)C3=O)cc1,1.4,-5,0,-2.0
C[C@@H]1CN([C@@H](C)CO)C(=O)c2cccc(NS(=O)(=O)c3ccccc3)c2O[C@@H]1CN(C)S(=O)(=O)c1cccs1,0.9,-5,-11,1.1
C/C=C/c1ccc([C@@H]2[C@@H](CO)N3CCCCN(CCC(F)(F)F)C[C@@H]23)cc1,8.2,0,4,0.2
CCCNC(=O)Nc1ccc2c(c1)C(=O)N(C)C[C@@H](OC)[C@H](C)CN(Cc1cncnc1)[C@H](C)CO2,-2.2,-1,-2,-1.8
COc1ccc2c3c(n(C)c2c1)[C@@H](CO)N(Cc1ccc(F)cc1)CC31CN(CC2CCOCC2)C1,17,4,-2,-2.2
COCCNC(=O)C[C@@H]1CC[C@@H]2[C@H](COC[C@@H](O)CN2Cc2cccc(-c3ccncc3)c2)O1,-10,-2,5,-2.6
COc1ccc(-c2cnc3c(NC(C)=O)cc(-c4ccc(S(C)(=O)=O)cc4)cn23)cc1OC,1.5,2,10,7.5
C[C@@H]1CN([C@H](C)CO)S(=O)(=O)c2ccc(-c3ccncc3)cc2O[C@@H]1CN(C)S(C)(=O)=O,-15,7,8,-2.3
CC(C)C(=O)Nc1ccc2c(c1)C(=O)N(C)[C@@H]1CC[C@@H](CC(=O)NCc3ccccc3)O[C@@H]1CO2,-12,3,4,0.3
O=C(Cc1ccccn1)N1CC(=O)N2[C@@H](CO)[C@@H](c3ccc(-c4ccccc4)cc3)[C@@H]2C1,-1.7,9,4,0.5
O=C(C[C@@H]1C=C[C@@H](NC(=O)Nc2ccc(C(F)(F)F)cc2)[C@@H](CO)O1)NCc1ccccn1,-1.6,-1,4,-0.3
Cc1noc(C)c1S(=O)(=O)Nc1ccc2c(c1)C(=O)N([C@@H](C)CO)C[C@H](C)[C@@H](CN(C)C(=O)NC(C)C)O2,-7.1,3,2,-1.3
C[C@H](CO)N1C[C@H](C)[C@@H](CN(C)C(=O)Nc2cccc3ccccc23)Oc2ccc(NS(=O)(=O)c3cn(C)cn3)cc2CC1=O,2.8,3,9,2.1
C[C@H](CO)N1C[C@H](C)[C@@H](CN(C)C(=O)CC2CC2)Oc2cc(C#CC3CC3)ccc2S1(=O)=O,-0.9,-5,-11,-0.1
O=C(/C=C/[C@H]1O[C@@H](n2cnc3c(NC(=O)c4ccccc4)ncnc32)[C@H](O)[C@@H]1O)NCC(c1ccccc1)c1ccccc1,-0.4,-14,-20,-2.1
COc1ccc(CN(C)C[C@H]2Oc3ccc(NC(=O)Nc4ccc5c(c4)OCO5)cc3CC(=O)N([C@@H](C)CO)C[C@H]2C)cc1,-0.3,6,-1,4.0
O=C1NC[C@H](CCCCN2C[C@H](Cc3ccccc3)N(CCC3CCCCC3)C(=O)C2=O)N(CCC2CCCCC2)C1=O,-5.3,9,7,2.2
O=C(O)c1c[nH]c2nccnc12,-1.7,12,4,-0.6
CN(C)C(=O)[C@H]1[C@H](CO)[C@H]2Cn3c(ccc(/C=C/c4ccccc4)c3=O)[C@H]2N1CC1CC1,-4.3,-1,1,1.8
COc1cc(C(O)c2nc(-c3cccc(F)c3)cs2)ccc1F (configuration not stated),-1.0,-60,-76,-20
Cc1cccc(C)c1-n1nnnc1C1(C)CCC(=O)N1Cc1ccc(F)cc1 (configuration not stated),1.4,1,-1,0.4
C[C@@H]1CN([C@@H](C)CO)S(=O)(=O)c2ccc(-c3cccnc3)cc2O[C@@H]1CN(C)Cc1ccccn1,-1.1,2,5,-0.7
CCCCNC(=O)C[C@@H]1C[C@@]2(C(=O)OCC)CCCC=C2N(Cc2ccc3c(c2)OCO3)C1=O,1.3,-10,-32,-5.2
O=C(NC1Cc2ccccc2C1)[C@@H]1[C@@H](CO)[C@@H]2Cn3c(cccc3=O)[C@@H]2N1C(=O)C1CCC1,2.4,0,3,-1.6
C[C@H](CO)N1C[C@H](C)[C@@H](CN(C)C(=O)Nc2ccc(C(F)(F)F)cc2)OCCCC[C@H](C)Oc2ccc(NC(=O)Nc3ccc(F)cc3)cc2C1=O,-0.5,1,-2,-0.5
O=C(C[C@@H]1CC[C@H]2[C@@H](COC[C@H](O)CN2Cc2ccc3c(c2)OCO3)O1)N1CCOCC1,-1.6,-1,0,0.1
C[C@@H]1CN([C@@H](C)CO)C(=O)c2cc(NC(=O)c3ccccc3)ccc2O[C@@H](C)CCCCO[C@@H]1CN(C)C(=O)C1CCCCC1,-5.3,-5,0,-1.3
O=C(N[C@H]1C=C[C@@H](CC(=O)N2CCC(Cc3ccccc3)CC2)O[C@H]1CO)c1cnccn1,-0.9,-1,-3,-0.6
Cc1noc(C)c1NC(=O)N[C@@H]1CC[C@@H](CC(=O)Nc2ccc(-c3ccccc3)cc2)O[C@@H]1CO,-13,-3,-7,1.0
O=C(C1CCC1)N1CC2(C1)[C@H](c1ccccc1)[C@@H](CO)N2C(=O)c1cccnc1,-3.4,2,7,-5.9
CCCC(=O)Nc1ccc2c(c1)OC[C@H](C)N(C(=O)C1CCCC1)C[C@H](C)[C@H](OC)CN(C)C2=O,-2.0,-1,4,-0.4
CN1c2ccc(C#Cc3cccnc3)cc2[C@@H]2[C@@H](CCN2C(=O)C2CCC2)[C@H]1CO,9.9,-10,3,-4.8
CC(C)CC#Cc1ccc([C@@H]2[C@H]3CN(S(=O)(=O)c4ccccc4)CC(=O)N3[C@H]2CO)cc1,1.8,6,1,5.8
COc1cccc(NC(=O)N2CC(=O)N3[C@H](CO)[C@@H](c4ccc(C#CC5CCCC5)cc4)[C@@H]3C2)c1,3.0,1,2,-3.9

# Looked up by compound from the entries so far (two):
SMILES,MLL AF4-AF9 inh,Ecoli rRNA inh,Ecoli rRNA inh OD600,Ecoli rRNA inh RFP
CC(C)CC#Cc1ccc([C@@H]2[C@H]3CN(S(=O)(=O)c4ccccc4)CC(=O)N3[C@H]2CO)cc1,1.8,6,1,5.8
O=C(C[C@@H]1CC[C@@H]2[C@H](COC[C@H](O)CN2Cc2cccc(C(F)(F)F)c2)O1)NCc1ccc(Cl)cc1,5.8&0.4,-57&-40,-78&-68,-12&0.4

# Going on with the list:
SMILES,MLL AF4-AF9 inh,Ecoli rRNA inh,Ecoli rRNA inh OD600,Ecoli rRNA inh RFP
O=C(NCC[C@@H]1CC[C@H](NS(=O)(=O)c2cccc(Cl)c2)[C@@H](CO)O1)c1cnccn1,-1.8,1,3,-0.1
Cc1noc(C)c1NC(=O)N(C)C[C@H]1Oc2c(NS(=O)(=O)c3ccc(Cl)cc3)cccc2C(=O)N([C@H](C)CO)C[C@@H]1C,-2.7,4,5,-4.1
CO[C@@H]1CN(C)C(=O)c2cc(NC(=O)c3ccc4c(c3)OCO4)ccc2OC[C@H](C)N(CCC(F)(F)F)C[C@@H]1C,-3.5,-4,-11,-1.0
CO[C@@H]1CN(C)C(=O)c2cc(NC(=O)CC(F)(F)F)ccc2OC[C@H](C)N(C(=O)C2CCOCC2)C[C@H]1C,-7.3,0,-3,2.4
CCCc1cnc(Nc2nc(C(N)Cc3ccc(C(F)(F)F)cc3)cs2)nc1 (configuration not stated),-4.6,-60,-79,-24
CC(=O)N(C)C[C@H]1Oc2cc(C#Cc3ccc(F)cc3)ccc2S(=O)(=O)N([C@@H](C)CO)C[C@H]1C,-0.3,-9,-11,0.4
C[C@H](CO)N1C[C@H](C)[C@@H](CN(C)Cc2ccc(C(=O)Nc3ccccc3N)cc2)Oc2ccc(NS(=O)(=O)c3cccs3)cc2C1=O,-1.2,4,10,0.7
CCCN1C[C@H](C)[C@@H](OC)CN(C)C(=O)c2ccc(NC(=O)c3cnccn3)cc2OC[C@H]1C,-1.9,1,8,2.7
CC(C)NC(=O)Nc1cccc2c1O[C@H](CN(C)C)[C@H](C)CN([C@H](C)CO)C2=O,1.1,4,9,-1.8
O=S1(=O)CC(N2CCCC2)CN1Cc1cn(Cc2ccccc2)nn1 (configuration not stated),-5.7,9,21,-2.6
O=C(Nc1cc(F)ccc1F)N1CC(=O)N2[C@H](C1)[C@@H](c1ccc(/C=C/c3ccccc3)cc1)[C@@H]2CO,5.2,0,-4,2.7

# Filtered by structure: those above with a Cl atom.
SMILES,MLL AF4-AF9 inh,Ecoli rRNA inh,Ecoli rRNA inh OD600,Ecoli rRNA inh RFP
C[C@H]1CN([C@@H](C)CO)C(=O)c2cccc(NC(=O)c3cnccn3)c2O[C@H]1CN(C)Cc1ccc(Cl)c(Cl)c1,3.3,-11,-1,0.4
O=C(C[C@@H]1CC[C@@H]2[C@H](COC[C@H](O)CN2Cc2cccc(C(F)(F)F)c2)O1)NCc1ccc(Cl)cc1,5.8&0.4,-57&-40,-78&-68,-12&0.4
C[C@@H]1CN([C@@H](C)CO)C(=O)c2cccc(NS(=O)(=O)c3ccc(Cl)cc3)c2O[C@H]1CN(C)S(=O)(=O)c1cccs1,-1.4,-4,-6,0.0
CCCCc1c(-c2ccccc2OC)ncn1CCc1ccc(Cl)cc1,9.7,-62,-79,-13
O=C(NCC[C@@H]1CC[C@H](NS(=O)(=O)c2cccc(Cl)c2)[C@@H](CO)O1)c1cnccn1,-1.8,1,3,-0.1
Cc1noc(C)c1NC(=O)N(C)C[C@H]1Oc2c(NS(=O)(=O)c3ccc(Cl)cc3)cccc2C(=O)N([C@H](C)CO)C[C@@H]1C,-2.7,4,5,-4.1

# Screening results from PubChem.

# The list is partial. The share of hits here may be higher or lower than overall.
